Screening data: PubChem BioAssay, Center for Chemical Genomics, University of Michigan
CDC25B CDK2 inh = human CDC25B-CDK2/CyclinA binding inhibition; P30305+P24941; HTRF CDC25B-CDK2/CyclinA binding, anti-His/anti-Flag; hits give high values; z-score (no concentration beside the values); 94,000 compounds, 0.72% hits;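 further: score is relative to mean and SD of negative controls; strong numbers were not always called active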
TAR Tat displ = HIV-1 TAR-Tat binding disruption | HIV-1 TAR RNA, Tat peptide displacement FRET; hits give high values | z-score (test concentration not listed) | 100,000 compounds, 0.6% hits;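 further: score is relative to mean and SD of negative controls; some compounds called inactive have numbers as strong as hits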
Active calls of the source: *; x = not tested or not shown.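 How the source made its calls: active means z-score from 3 up in half or more of its runs; inactive means the rest.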

compound,CDC25B CDK2 inh,TAR Tat displ
Cc1cccc(NC(c2cccc(F)c2)c2ccc3cccnc3c2O)n1 (configuration not stated),-0.34,x
Cc1nc(SCC(=O)c2ccccc2)c2c(=O)n(C)c(=O)n(C)c2n1,-2.4,x
Cc1ccc(C)c(Cn2ncc3ccccc32)c1,-2.6,-0.25
CN(C(=O)CSc1nc2c(c(=O)[nH]1)CCC2)C1CCCCC1,-2,0.44
COC(=O)C1(C(F)(F)F)N=C(N2CCCC2)OC(N2CCCC2)=N1,-1,x
COc1cc(OC)c(NC(=O)CSc2nc3ccncc3[nH]2)cc1Cl,-0.77,-0.4
C=CCOc1c(Cl)cc(C2C(C#N)=C(N)Oc3cc(O)ccc32)cc1OC (configuration not stated),0.41,-1.7
COC(=O)c1ccccc1NC(=O)CC1NCCNC1=O (configuration not stated),-1.8,x
Cc1oc2ccc(O)c(CN3CCCCC3C)c2c1C(=O)OCC(C)C (configuration not stated),-0.03,0.85
CCCc1nnc(NC(=O)c2cc(=O)c3cc(CC)ccc3o2)s1,2.5,1.1
O=C(O)C1C2CCC(O2)C1C(=O)N1CCN(C(c2ccccc2)c2ccccc2)CC1 (configuration not stated),-2.3,1.7
Oc1ccc(-c2cn3c4ccccc4n(CCN4CCOCC4)c3n2)cc1,-0.52,0.55
Cc1ccc(N2C(=O)N(c3ccccc3)C3CS(=O)(=O)CC32)cc1C (configuration not stated),-1.5,1.2
CCC(=O)N1CCc2cc(Br)cc(S(=O)(=O)N3CCc4ccccc43)c21,-0.02,x
COC(=O)C(C)Sc1ncnc2c1sc1nc(N3CCOCC3)c3c(c12)CCCC3 (configuration not stated),0.73,1.2
COc1ccc(CN(C)Cc2cc(=O)c3cc(Cl)ccc3[nH]2)cc1OC,x,0.74
O=C(c1cccc(S(=O)(=O)N2CCCC2)c1)N1CCc2ccccc21,x,2.8
O=C(Cn1nc(-c2ccc(Br)cc2)c2ccccc2c1=O)c1ccccc1,-3.1,0.95
O=C(O)c1cc(=O)c2ccccc2[nH]1,-0.32,0.48
O=C1CSc2ccc(C(F)(F)F)cc2N1Cc1c(Cl)cccc1Cl,-1.3,x
CC1=C(c2ccc(C)cc2)S(=O)(=O)N=C1Nc1ccccc1Br,-5.5,-1.3
COc1ccc(C2/C(=C(\O)c3ccc(F)cc3)C(=O)C(=O)N2Cc2cccnc2)cc1 (configuration not stated),-1.3,1.4
CC1CCCN(c2c(-c3ccc(Cl)cc3)c(=O)c2=O)C1 (configuration not stated),x,0.33
CCSc1ccc(C#N)cn1,-1,x
COc1ccc(NS(=O)(=O)c2c(C)nc3scc(C)n3c2=O)c(OC)c1,-1.4,1.6
CCN(c1ccccc1)S(=O)(=O)c1ccc2c(c1)NC(=O)CC(C)S2 (configuration not stated),x,0.91
COc1ccccc1-n1c(O)c(C2=Nc3ccccc3SC(c3cccs3)C2)c(=O)[nH]c1=O (configuration not stated),-5.1,2
N#CCC(=O)c1cccc(CSc2cccc(C(F)(F)F)c2)c1,-0.89,x
Cc1ccc(C)c2[nH]c(=O)c(CCNC(=O)Cc3cccs3)cc12,-2.3,x
N#CC(C#N)=C1SC=C(c2ccc(Cl)cc2)S1,-1.2,x
O=C(c1ccccc1)c1ccc2nc(NCCCO)c3nncn3c2c1,x,-1.8
COc1cc(NC(=O)N2c3ccccc3Sc3ccccc32)c(C(=O)O)cc1OC,0.59,1
CC(C)CC(=O)N1CCN(CC2CC=CCC2)CC1 (configuration not stated),-0.29,1.4
Cc1cc(C)cc(N2C(=O)N(Cc3ccccc3)C3CS(=O)(=O)CC32)c1 (configuration not stated),x,0.21
Cn1c(=O)c2c(ncn2CC(=O)NCC2CCCO2)n(C)c1=O (configuration not stated),-1,x
CN1CCN(C(=O)c2cc3c(s2)-c2ccccc2OC3)CC1,-0.51,0.85
Cc1cc(S(=O)(=O)N2CCc3ccccc3C2)ccc1F,-0.82,0.28
Cc1c(Br)sc(Br)c1-c1ccccc1,-1.1,x
Cc1cc(-c2ccc(S(=O)(=O)N(C)Cc3ccccc3)cc2)on1,x,1.2
CCC(SC1=Nc2ccccc2C2=NC(C(C)C)C(=O)N12)C(=O)Nc1ccc(OC)cc1OC (configuration not stated),x,0.48
CCc1nn(CC(=O)NCCOC)c(=O)c2cc3occc3n12,-0.72,1.8
O=C(CCN1C(=O)c2ccccc2C1=O)Nc1ccc(Br)cn1,-0.86,x
COc1cc(OC)c(-n2nnc(-c3nc(-c4ccccc4F)no3)c2C)cc1Cl,x,1
CCCN1C(=O)c2[nH]nc(-c3ccccc3O)c2C1c1ccc(SC)cc1 (configuration not stated),-0.18,0.86
CCOC(=O)c1c(C)n(CCOc2ccc(F)cc2)c2ccc(O)cc12,2.2,1.1
CC(C)(C)c1ccc(S(=O)(=O)N2CCC(n3c(=O)[nH]c4ccccc43)CC2)cc1,-0.49,0.78
Cc1ccn2cc(-c3ccc(C)c(NS(=O)(=O)c4ccc(Cl)cc4)c3)nc2c1,-1.6,0.8
COc1ccc(C2CC(=O)C3=C(C2)NC(C)=C(C#N)C3c2ccc(OC(C)=O)c(OC)c2)cc1 (configuration not stated),-1.3,0.31
COC(=O)c1c(NC(=O)c2nc3ncccn3n2)sc(C(=O)N(C)C)c1C,-2,4.2
CCc1nnc2c3ccccc3nc(Nc3ccc4c(c3)OCCO4)n12,-1.1,0.76

(next part)
compound,CDC25B CDK2 inh,TAR Tat displ
COc1ccc(OCc2nnc(SCc3cc(=O)c4cc(C)ccc4[nH]3)n2C)cc1,x,1.7
CC(C)(Nc1ccc([N+](=O)[O-])cn1)OC(=O)c1cc2ccccc2oc1=O,-0.4,x
CN1CCN(C(=O)CN2C(=O)COc3ccc(Cl)cc32)CC1,-1.1,-2
N#CC1=C2N=C(N)c3ccccc3N2C2=C(C(=O)CCC2)C1c1ccc2c(c1)OCO2 (configuration not stated),-1.7,-6.5
Cc1noc2ncn(Cc3ccc(Br)cc3F)c(=O)c12,x,-0.14
CCOc1ccccc1NS(=O)(=O)c1cc(-c2cnc(C3CC3)o2)ccc1C,x,0.34
Cc1ccc(S(=O)(=O)Nc2cc(Cl)c(O)cc2C)cc1,-3.2,0.74
C#CCSc1n[nH]c(-c2ccc(CCCCC)cc2)n1,-0.64,x
NC(=O)CSc1ccc(Cl)cc1,x,1.5
CCCCSc1nnc2c(n1)OC1(Nc3ccccc3-2)C(=O)Nc2ccc(Br)cc21 (configuration not stated),-3.1,x
CCCN1CCN(S(=O)(=O)c2ccc3c(c2)NC(=O)C(C)C(=O)N3)CC1 (configuration not stated),-0.79,1.1
COC(=O)c1c(C)n(S(C)(=O)=O)c2ccc(N(C(=O)c3ccco3)S(C)(=O)=O)cc12,-1,0.36
CC[C@H]1OC(=O)[C@H](C)[C@@H](O[C@H]2C[C@@](C)(OC)[C@@H](O)[C@H](C)O2)[C@H](C)[C@@H](O[C@@H]2O[C@H](C)C[C@H](N(C)C)[C@H]2O)[C@](C)(OC)C[C@@H](C)C(=O)[C@H](C)[C@@H](O)[C@]1(C)O,x,0.37
Cc1cc(N2CCOCC2)nc2ccc(N3C(=O)CCC3=O)cc12,-0.52,x
Cc1ccccc1CNc1nc(N2CCC(N3CCCCC3)CC2)nc2c1cnn2C,x,2.2
CC(C(=O)O)N1C(=O)CC(C)(C)Sc2ccccc21 (configuration not stated),0.56,0.28
O=C1COc2cc(S(=O)(=O)CCC(=O)NC3CCCc4ccccc43)c(Cl)cc2N1 (configuration not stated),x,1.2
Cc1oc2c(CN3CCN(C)CC3)c(O)ccc2c(=O)c1-c1ccc(Br)cc1,-0.71,-0.47
O=c1oc(-c2cccs2)nc2sc3c(c12)CCC3,-2.5,2.3
CCC(O)c1nc2ccccc2n1CCc1ccccc1 (configuration not stated),-1.4,-0.78

Grouped by structure: those above containing bromine.
compound,CDC25B CDK2 inh,TAR Tat displ
CCC(=O)N1CCc2cc(Br)cc(S(=O)(=O)N3CCc4ccccc43)c21,-0.02,x
O=C(Cn1nc(-c2ccc(Br)cc2)c2ccccc2c1=O)c1ccccc1,-3.1,0.95
CC1=C(c2ccc(C)cc2)S(=O)(=O)N=C1Nc1ccccc1Br,-5.5,-1.3
Cc1c(Br)sc(Br)c1-c1ccccc1,-1.1,x
O=C(CCN1C(=O)c2ccccc2C1=O)Nc1ccc(Br)cn1,-0.86,x
Cc1noc2ncn(Cc3ccc(Br)cc3F)c(=O)c12,x,-0.14
CCCCSc1nnc2c(n1)OC1(Nc3ccccc3-2)C(=O)Nc2ccc(Br)cc21 (configuration not stated),-3.1,x
Cc1oc2c(CN3CCN(C)CC3)c(O)ccc2c(=O)c1-c1ccc(Br)cc1,-0.71,-0.47

Next part
compound,CDC25B CDK2 inh,TAR Tat displ
Cc1cccc(N(C)c2nc3ccc(C)cc3n3nnnc23)c1,x,1.2
Cc1ccc(S(=O)(=O)NCc2nc(-c3ccc(Cl)cc3)no2)cc1,-1.1,1.1
CC1CCCN(C(=O)CSc2nc(-c3ccc(C(C)(C)C)cc3)nc3cc(=O)[nH]n23)C1 (configuration not stated),x,2.7
Cc1oc(-c2ccccc2Cl)nc1Cn1cnc2onc(C)c2c1=O,x,1.6
O=C(Nc1cccc(O)c1)c1cnn2c(C(F)(F)F)cc(-c3cccs3)nc12,x,1.7
CCc1cc2c3c([nH]c2cc1S(=O)(=O)N(C)Cc1ccco1)CC(C)(C)CC3=O,x,0.61
O=C(NCc1ccccc1)c1cc(-c2cccnc2)nc2ccc(Br)cc12,x,2.1
C#CC1(NS(=O)(=O)c2ccc(SCC(=O)OCC)c([N+](=O)[O-])c2)CCCCC1,-1.6,x
COc1cccc(C2C3=C(CCCC3=O)Nc3nc(SCc4ccccc4)nn32)c1OC (configuration not stated),-0.4,-0.06
COc1ccccc1Oc1ccc(C(F)(F)F)cc1N,0.58,x
CC(C)c1cc(C2CCCN2S(=O)(=O)c2cccc3nsnc23)no1 (configuration not stated),x,0.77
COc1ccccc1NS(=O)(=O)c1ccc2c(c1)CCN2,x,0.48
COC(=O)C1=C(C)Nc2nc(SC(C)C)[nH]c(=O)c2C1c1ccc(C(=O)OC)cc1 (configuration not stated),-0.41,0.32
Brc1ccc2ncnc(-c3ccccc3)c2c1,-0.69,1.9
CCc1ccc(C2N=C3Oc4ccccc4C=C3C(=O)N2)cc1 (configuration not stated),-2,1.9
CC(=O)Oc1ccc(Cl)cc1C1OC(c2nc3nc(C)cc(C)n3n2)=NN1C(C)=O (configuration not stated),x,1.1
Cc1ccc(Cl)cc1-n1ncc2c(N3CCCC3)ncnc21,x,0.19
O=C(c1ccc(F)cc1)N1CCN(c2cc(=O)n3nc(-c4ccccc4)sc3n2)CC1,x,-0.46
Cc1ccc(S(=O)(=O)Nc2cccc(-c3csc(-c4ccccc4)n3)c2)cc1[N+](=O)[O-],-0.53,x
COc1ccc(-c2nc(NCCc3ccc(OC)c(OC)c3)c3ccccc3n2)cc1,x,1.8
C=CCNC(=O)c1c(N)oc2nc3ccccc3nc12,-3.4,x
COc1cc(OC)c(NC(=O)c2cc3c(s2)-c2ccccc2S(=O)(=O)C3)cc1Cl,-1.3,2.8
Nc1c(C(=O)Oc2ccc3cnccc3c2)sc2ccccc12,x,1.7
COC(=O)c1c(NC(=O)Cn2nc([N+](=O)[O-])c(Br)c2C)sc2c1CCCC2,x,0.51
CCCCN(C)C(=O)c1nn(C)c2c1COc1ccccc1-2,4.3,0.91
N#C/C(=C\Nc1ccc(OC(F)(F)F)cc1)C(=O)C1CC1,-1,x
Cc1ccc(N=NN(C)C)cc1,-0.66,x
Cc1cc(Nc2ccc(Cl)cc2)nc(NCc2ccccc2)n1,-1.5,x
Oc1ccc(-c2csc(-c3ccncc3)n2)cc1O,-0.37,x
Clc1ccccc1OCc1nc(-c2ccccc2)no1,1.1,1.4
O=C(CS(=O)(=O)c1ccc2c(c1)S(=O)(=O)N=CN2)Nc1ccccc1,x,-0.55
O=C(NCCC1=CCCCC1)C1COc2ccccc2C1 (configuration not stated),x,-0.55
CCOC(=O)CSc1cc(=O)n(C)c2ccccc12,-1.3,0.52
O=C(Nc1nnc(-c2ccccc2I)s1)Nc1ccc(Cl)cc1Cl,6.4,x
O=c1c2ccccc2nc2ccc(NCc3cccs3)nn12,-0.81,-0.84
Cc1ccc(C2CC(=O)N(C)c3c2c(C)nn3-c2nc(C)cc(C)n2)cc1 (configuration not stated),-1.5,1.8
CCc1ccc(C2CC(=O)NC3=C2C(=O)CC(c2ccccc2Cl)C3)cc1 (configuration not stated),-0.44,-1.6
CCOC(=O)C1CCCN(c2nnc(Cl)c3ccccc23)C1 (configuration not stated),-1.3,-0.26
COc1cccc2sc(/N=C/N(C)C)nc12,0.27,x

In the list so far, these have a tert-butyl group:
compound,CDC25B CDK2 inh,TAR Tat displ
CC(C)(C)c1ccc(S(=O)(=O)N2CCC(n3c(=O)[nH]c4ccccc43)CC2)cc1,-0.49,0.78
CC1CCCN(C(=O)CSc2nc(-c3ccc(C(C)(C)C)cc3)nc3cc(=O)[nH]n23)C1 (configuration not stated),x,2.7
